# AID504770: growth inhibitors of E. coli YBA685 in a screen for V. cholerae RctB (chromosome II replication) inhibitors; E. coli YBA685 rctB-dependent plasmid, OD600 growth, 3 h; stronger effect = lower value; z-score (test concentration not listed); 130,000 compounds, 0.27% hits;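 active = z-score under -2 on both plates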;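 note: wells of about 30 µL received 100 nL stock; score is relative to mean and SD of the test wells; the first replicate is given; strong numbers were not always called active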
# Ba CapD inh: inhibitors of Bacillus anthracis CapD enzyme | purified CapD enzyme, fluorescence intensity read-out; stronger effect = lower value; some hits fall short of the stated cut | z-score (test concentration not listed) | 140,000 compounds, 0.23% hits | AID 492967;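 active = z-score under -4 in either of two replicates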;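 note: stock transfer was 100 nL into about 40 µL; score is relative to mean and spread of the plate; one replicate is shown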
# Active calls of the source: *; i = inactive; . = not tested or not shown; & = joins results of further samples.
SMILES,AID504770,Ba CapD inh
CCOC(=O)c1cc(-c2ccc(OC)c(S(=O)(=O)N3CCc4ccccc43)c2)on1,0.05,0.34
Clc1ccc(N2CCN(c3nnnn3-c3ccccc3)CC2)cc1Cl,.,-0.29
Cc1ccc(-c2nc3ccc(C(=O)O)cc3nc2-c2ccc(C)cc2)cc1,.,2
O=C1CC(c2ccc3c(c2)OCO3)CC2=C1C(c1cc3c(cc1Br)OCO3)Nc1ccccc1N2 (centres undefined),.,-0.09
O=C(Cc1noc2ccccc12)N1CCN(c2ccccc2)CC1,-0.15,-0.73
CCOC(=O)c1cc(C)[nH]c(=O)c1C#N,.,0.39
CCSc1nnc(NC(=O)C(C)C)s1,0.6,i
CC(C)(C)C1=CC(C(C#N)C#N)c2ccccc2O1 (centres undefined),-2.1*,-0.44
Cc1cccc(C)c1NC(=O)C1CCN(S(=O)(=O)c2ccccc2)CC1,0.55,0.31
Cc1ccc(CNC(=O)CCSCc2cccc(F)c2)cc1,0.8,.
O=C(O)C1CCCCCN1 (centres undefined),-0.3,-0.005
O=C(N/N=C/c1ccc(CO)o1)c1ccc([N+](=O)[O-])cc1Cl,.,-1.6
O=C(Nc1ccccc1)N1CCN(C(=O)C2CCCO2)CC1 (centres undefined),0.15,1.2
COc1ccc(NC(C)=O)cc1NC(=O)c1c(-n2cccc2)sc(C)c1C,-0.25,.
CCc1nnc(NS(=O)(=O)c2ccc(NC(=O)CSc3nc4ccccc4s3)cc2)s1,.,0.41
O=C(Nc1nccs1)c1ccc(Cl)cc1,.,0.33
Cc1cc2nc(Nc3ncc4c(n3)CC(c3ccco3)CC4=O)nc(C)c2cc1C (centres undefined),1.6,.
O=S(=O)(NCc1ccccc1)c1ccccc1,.,-0.89
CC1CCCN(C(=O)c2ccc(Cl)c(S(=O)(=O)N3CCCCCC3)c2)C1 (centres undefined),-0.15,0.045
COc1ccc2c(c1)C(C(C#N)C#N)C(C#N)=C(N)O2 (centres undefined),-2.4*,0.68
O=C(O)CCC(=O)N1CCc2c(F)c(F)c(F)c(F)c21,.,-0.1
COc1ccc(-c2cc(CNS(=O)(=O)c3ccc(F)cc3)on2)cc1,.,-0.01
O=C1C2C3c4ccccc4C(C=Nc4cccc(Cl)c4Cl)(c4ccccc43)C2C(=O)N1c1ccccc1Cl (centres undefined),.,-0.15
CCC(C)(C)c1cc2cc(NS(=O)(=O)c3cccc(C(F)(F)F)c3)ccc2[nH]1,.,-0.59
COc1ccccc1/C(O)=C/c1nc2cc3c(cc2[nH]c1=O)n(C)c(=O)n3C,0.2,0.15

# Taken from above:
# Under Ba CapD inh, `O=C(N/N=C/c1ccc(CO)o1)c1ccc([N+](=O)[O-])cc1Cl` has -1.6
# Under AID504770, `Cc1ccc(CNC(=O)CCSCc2cccc(F)c2)cc1` has 0.8
# Under AID504770, `O=C(O)C1CCCCCN1` (centres undefined) has -0.3
# Under AID504770, `CCSc1nnc(NC(=O)C(C)C)s1` has 0.6
# Under Ba CapD inh, `O=C(Nc1nccs1)c1ccc(Cl)cc1` has 0.33
# Under Ba CapD inh, `COc1ccc(-c2cc(CNS(=O)(=O)c3ccc(F)cc3)on2)cc1` has -0.01

# The listing picks up, repeating the 6 entries before the break.
SMILES,AID504770,Ba CapD inh
COc1ccc2c(c1)C(C(C#N)C#N)C(C#N)=C(N)O2 (centres undefined),-2.4*,0.68
O=C(O)CCC(=O)N1CCc2c(F)c(F)c(F)c(F)c21,.,-0.1
COc1ccc(-c2cc(CNS(=O)(=O)c3ccc(F)cc3)on2)cc1,.,-0.01
O=C1C2C3c4ccccc4C(C=Nc4cccc(Cl)c4Cl)(c4ccccc43)C2C(=O)N1c1ccccc1Cl (centres undefined),.,-0.15
CCC(C)(C)c1cc2cc(NS(=O)(=O)c3cccc(C(F)(F)F)c3)ccc2[nH]1,.,-0.59
COc1ccccc1/C(O)=C/c1nc2cc3c(cc2[nH]c1=O)n(C)c(=O)n3C,0.2,0.15
Cc1ccc(CSc2nc3ccccc3c(=O)n2Cc2ccco2)cc1,.,0.46
Cc1ccc(NCC2OCc3ccccc3CO2)cc1,0.2,0.3
CN(C)C(CNC(=S)Nc1ccccc1)c1cccnc1 (centres undefined),1.8,-0.2
O=C1CC(c2ccccc2Cl)Cc2c1cnn2-c1nc2ccccc2s1 (centres undefined),-0.4,0.24
CC(C)Oc1cccc(NC(=O)Nc2ccccc2)c1,-0.4,-0.16
CCOC(=O)C1CCCN(C(=O)CSc2ccccc2Cl)C1 (centres undefined),0.2,0.69
COc1cccc(NC(=O)N2CCN(c3nnnn3-c3ccccc3)CC2)c1,-0.4,.
CCCCC1(C(=O)OCC)CC(CN2CCOCC2)OC1=O (centres undefined),1.9,0.43
O=C(CC(=O)N1CCCCCC1)Nc1ccc2nc3n(c(=O)c2c1)CCCCC3,1.6,0.22
O=C1CCCN1c1cccc(C(F)(F)F)c1,.,0.34
Cc1cc(C(=O)CSc2n[nH]c(COc3ccc(Cl)cc3)n2)c(C)n1-c1nccs1,0.1,.
COC(=O)CSc1nc(SCc2ccccc2Cl)nc2c1CCCC2,.,-0.07
COC(=O)c1ccc(NC(C)=O)c(C(=O)OC)c1,-0.1,-0.93
C=CCSC1=NC2(CC(c3ccccc3)c3c(C)cc(O)cc3O2)CC(C)(C)N1 (centres undefined),.,0.045
CCOC(=O)c1oc2ccccc2c1COC(=O)c1ccccn1,0.25,.
O=C1CC(N2CCOCC2)C(=O)N1C1CCCC1 (centres undefined),0.5,0.44
COc1ccc(CSc2nc(C)cc(=O)[nH]2)cc1Br,-0.8,-0.055
Cc1nn(Cc2ccccc2)c(C)c1C(=O)OCC(=O)Nc1ccccc1SCC#N,-0.05,.
COc1cccc2c1OCC(C(=O)Nc1ccc(Cl)cc1Cl)=C2,.,2
CN(C)C(=O)CN1CCNCC1,2,.
CCCn1c(C)cc(C(=O)COn2nnc3ccc(C(=O)OC)cc32)c1C,-0.05,.
O=C1CN(C(=O)c2ccccc2C(=O)O)c2ccccc2N1,-0.65,1
CCN(CCOC(=O)N1CCN(CCCC(c2ccc(F)cc2)c2ccc(F)cc2)CC1)c1ccc(N=Nc2ccc([N+](=O)[O-])cc2)cc1,.,-1.1
CC1(C)CC2(C)OC(=O)C(c3ccccc3)N2C(=S)N1 (centres undefined),-0.4,0.46
CC(=O)N1CCC(=O)c2cc(Br)ccc21,.,1.5

# One compound at a time (already shown). Screens in order: AID504770 | Ba CapD inh
# Results for CN(C)C(=O)CN1CCNCC1 → 2 | .
# Results for Cc1ccc(NCC2OCc3ccccc3CO2)cc1 → 0.2 | 0.3
# Results for COC(=O)CSc1nc(SCc2ccccc2Cl)nc2c1CCCC2 → . | -0.07
# Results for CC(=O)N1CCC(=O)c2cc(Br)ccc21 → . | 1.5

# Next section:
SMILES,AID504770,Ba CapD inh
COc1ccc(CNC(=O)c2cccc(S(=O)(=O)N3CCN(C)CC3)c2)cc1,0.3,.
Cc1ccc(-c2nc(S(=O)(=O)c3ccc(C)cc3)c(N(C)C)o2)cc1,-0.25,-0.24
Cn1cnc2ccccc21,0.05,.
COC(=O)CN1C(=O)C2(OCCCO2)c2cc(Br)ccc21,.,-0.46
CSc1nnc(C(C)(C)C)c(=O)n1/N=C/c1ccccc1,1.4,0.15
N#Cc1ccsc1NC(=O)CSc1ncnc2sc3c(c12)CCCC3,.,-0.44
O=c1oc2ccccc2c(Nc2ccccc2)c1CN1CCCCC1,0.2,0.25
Cc1cc(Br)ccc1OCCCN1C(=O)CCN1c1ccccc1,0.1,-0.27
N#CC1=C(N)C(C#N)(C#N)C(c2ccncc2)C2CCCC=C12 (centres undefined),.,-0.31
O=c1ccn(C2OC(CO)C(O)C2O)c(=S)[nH]1 (centres undefined),-0.35,0.42&-0.38
O=C(O)c1ccc(CN=C2NS(=O)(=O)c3ccccc32)cc1,-0.2,.
Cn1c(=S)[nH]c2sc3c(c2c1=O)CCC(C(C)(C)C)C3 (centres undefined),2.2,-1
O=c1oc2ccccc2cc1C1=NC(=S)NC(c2ccc3c(c2)OCO3)C1 (centres undefined),0.3,1.3
CS(=O)(=O)c1ccccc1C(=O)O,1.4,-0.8
C/C(=N\NC(=S)NC1CCCCC1)c1ccc(O)cc1,-0.1,.
COC(=O)NC1c2ccccc2Oc2ccccc21,-0.1,-0.1
Cc1oc2c(cc(NS(=O)(=O)c3ccc(Cl)c([N+](=O)[O-])c3)c3ccccc32)c1C(=O)OC(C)C,.,1.6
O=C(NCc1ccccc1)NC1(C(=O)O)CCCCC1,-0.3,.
COc1ccc(OCC(O)CNS(=O)(=O)c2cccs2)cc1 (centres undefined),-1.4,0.15
CCOC(=O)N1CCN(C(=O)Cn2nc(CC)n3c(cc4sc(C)cc43)c2=O)CC1,-0.45,-0.1
CCn1ccc(C(=O)Nc2cc(Cl)ccc2Cl)n1,0.4,0.27
Cc1ccc(-c2nnc(SCC(=O)c3ccc(C)cc3C)o2)cc1,1.2,.
N#CCOC(=O)c1sc2ccccc2c1Cl,-0.2,.
O=C(O)CCCSc1ccccc1,-0.4,-0.22
CCOC(=O)c1c(-c2ccccc2)cn2ccccc12,-0.25,85
# Next part:
SMILES,AID504770,Ba CapD inh
Cc1cccc(S(=O)(=O)N2CCN(Cc3ccsc3)CC2)c1,.,-0.045
O=C(Nc1ccc(NC(=O)c2cccs2)cc1)c1cccs1,0.85,.
COc1ccccc1Oc1nnnn1-c1ccccc1,1.8,0.63
O=C(NCCN1CCN(Cc2ccc(Br)cc2)CC1)C(=O)Nc1ccccc1,.,0.27
COc1ccc2nc(SCC(=O)NCC(F)(F)F)[nH]c2c1,-0.65,.
CCOC(=O)C1=c2s/c(=C\c3ccccc3)c(=O)n2C(N)=C(C(=O)OC)C1c1ccccc1 (centres undefined),.,0.43
O=C1/C(=C/c2ccccc2)CCCc2ccccc21,-0.3,-0.17
COc1ccc(C(=O)NCc2csc3ccccc23)cc1,-0.8,-0.27
CCCn1c(CCC(=O)Nc2ccccc2C)nc2cc(S(=O)(=O)N3CCOCC3)ccc21,-0.45,.
CCOc1ccc(NC(=O)CSc2nc3ccc(N4C(=O)c5ccccc5C4=O)cc3s2)cc1,0.75,0.42
O=c1[nH]c(=S)[nH]nc1-c1ccc(Cl)cc1,.,-0.75
CCOC(=O)c1cccc(C(=O)Nc2nc3ccc(OC)cc3s2)n1,-0.2,2.9
O=C(CCCSc1nc(-c2ccco2)cc(C(F)(F)F)n1)NC1CCCCC1,-0.15,.
O=S1(=O)c2cccc3cccc(c23)N1Cc1ccccc1F,-0.65,.
O=C(Nc1ccc(O)c(-c2nc3ccccc3s2)c1)c1cc(Br)ccc1Cl,.,0.71
O=C(NCC(O)CO)c1c(I)c(C(=O)NCC(O)CO)c(I)c(N(CCO)C(=O)CO)c1I (centres undefined),.,-1.1
Cc1ccc2c(c1)C(c1ccc(F)cc1)N(C(=O)COc1ccccc1)CC(=O)N2 (centres undefined),.,0.04
O=c1c2ccccc2c2ccccc2c(=O)n1-c1ccc2c(c1)OCO2,0.5,0.3
c1ccc(Oc2ccc(NC3=NCCC3)cc2)cc1,-0.2,.
CCN1C(=O)c2ccccc2Sc2ccc(NC(=O)N3CCCCC3)cc21,-0.7,-0.9
CC(C)(C)c1nn2cnnc2n(NC(=O)Nc2cccc(Cl)c2)c1=O,-3.5*,.
CCOc1ccc(-n2c(N)c3c(N)nc(N(CC)CC)c(C#N)c3c(C#N)c2=S)cc1,1,.
O=C(COC(=O)c1ccc2c(c1)OCCO2)Nc1cccc(Cl)c1,0.45,.
COC(=O)c1ccc(NC(=O)CC2C(=O)N(c3ccc(F)cc3)C(=O)N2C2CCCC2)cc1 (centres undefined),-0.7,0.53
CO/N=C/c1c(C(F)(F)F)nn(C)c1Sc1ccccc1C(=O)OC,.,-0.38
# Other compounds.
SMILES,AID504770,Ba CapD inh
COc1ccc(/C=N/NC(=O)OC(C)(C)C)c(OC)c1C,.,-0.34
O=C(O)C1CC2C=CC1C21CC1 (centres undefined),-0.3,.
COc1ccc(CNc2nc3nc(C)c(Cl)c(C)n3n2)cc1OC,-0.1,.
O=C(O)CCC(=O)Nc1ccc(CN2CCCC2)cc1,0.35,-0.4
O=C(COc1cccc2c1CCN(Cc1cccnc1)C2=O)Nc1ccccc1,0.05,0.12
C=CCn1c(=NC(=O)c2cccs2)sc2cc(S(N)(=O)=O)ccc21,-1.2,10
O=C(COc1coc(CN2CCN(Cc3ccccc3)CC2)cc1=O)N1CCCCC1,1.1,.
CCCNC(=O)Cn1c(=O)n(C)c2ccccc21,0,1.5
CNC(=O)/C=C/c1ccc(S(=O)(=O)N2CCOCC2)cc1,-0.1,.
Cc1cccc(Cn2c(=O)oc3ccc(C)cc32)c1,-0.7,-0.84
O=C(O)C1CCC1C(=O)N1CCN(c2ccc(C(F)(F)F)cn2)CC1 (centres undefined),-0.25,0.43
Cn1nc(N2CCN(S(=O)(=O)c3ccccc3)CC2)c(=O)n(C)c1=O,-0.25,.
CCOc1cccc2c1OC(c1ccc(OC)c(OC)c1)N1N=C(c3cccc(OC)c3)CC21 (centres undefined),.,-0.17
N/N=C/c1ccc(S(=O)(=O)c2ccc(Cl)cc2)cc1,0.3,0.015
O=C(NC(=S)N1CCCC(C(F)(F)F)C1)c1ccc(F)cc1 (centres undefined),-0.5,.
COc1ccc(OCC(O)Cn2c(N(C)C)nc3c2c(=O)n(C)c(=O)n3C)cc1 (centres undefined),-0.45,0.32
COc1ccccc1/C=C/C1=NC(=C\c2cc(Br)c(OC(C)=O)c(OC)c2)/C(=O)O1,.,-0.71
CCOC(=O)c1cnc2cc(C3CC3)[nH]n2c1=O,-0.55,0.47
CC(C)c1ccc(N2C(=O)CSC23C(=O)N(CN2CCOCC2)c2ccccc23)cc1 (centres undefined),.,0.5
Cc1cccc(CSCc2ccc(C(=O)NC3CCCC(C)C3C)o2)c1 (centres undefined),0.85,-0.7
NC(=O)C1CCN(C(=O)CSc2nccc(-c3ccccc3)n2)CC1,-0.35,.
O=C1NCCCC1C1=NC(CO)(CO)CO1 (centres undefined),-0.7,0.24
Cc1ccc(SCC(=O)Nc2nnc(CCS(=O)(=O)c3ccc(C)cc3)s2)cc1,.,-0.28
Cc1nc2ccccc2n1CC(O)COc1ccccc1 (centres undefined),0.5,0.26

# From PubChem BioAssay
